High-throughput results deposited in PubChem by Broad Institute.
ALR H2O2 inh: inhibitors of human ALR sulfhydryl oxidase, primary screen, biochemical, H2O2 detection, HRP-luminol luminescence, single point; FAD-linked sulfhydryl oxidase ALR (Homo sapiens), P55789; 3.8% of 290,000 active; purified ALR, DTT oxidation; inhibition, % (no concentration beside the values); AID 485317, 2010;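 active = mean and each replicate at 75% or more; inconclusive = only one of the two met; inactive = neither met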;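 also: stock transfer was 7.5 nL into about 7.5 µL; 0% = neutral wells and 100% = wells with inactivated enzyme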
Target sequence (P55789 whole entry, looked up): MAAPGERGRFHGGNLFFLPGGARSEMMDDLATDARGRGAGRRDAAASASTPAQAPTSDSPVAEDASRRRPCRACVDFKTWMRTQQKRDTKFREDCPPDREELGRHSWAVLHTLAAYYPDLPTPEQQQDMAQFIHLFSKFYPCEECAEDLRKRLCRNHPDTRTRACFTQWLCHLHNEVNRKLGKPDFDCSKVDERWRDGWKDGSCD
FGF22 binding: binders of human FGF22 protein, primary screen, FGF22 synaptogenesis inhibitor project, biophysical, thermal shift, single point. AID 651658, 2012. recombinant FGF22 thermal shift, SYPRO orange fluorescence; percent of sucrose octasulfate shift, DMSO zero. Fibroblast growth factor 22 (Homo sapiens), Q9HCT0. 1.5% of 340,000 active. calls only at 9.99 µM;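 active = melting point raised past a set limit in the mean and every replicate; inconclusive = no clear call; three in four hits are not shown here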
Target sequence (Q9HCT0 whole entry, looked up): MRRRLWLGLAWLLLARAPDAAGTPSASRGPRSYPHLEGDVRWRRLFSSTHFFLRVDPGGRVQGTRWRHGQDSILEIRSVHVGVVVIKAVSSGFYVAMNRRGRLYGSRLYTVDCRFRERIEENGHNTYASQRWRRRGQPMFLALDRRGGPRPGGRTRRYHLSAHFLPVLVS
T cruzi inh: inhibitors of intracellular T. cruzi growth, primary screen, luminescence, NIH3T3 host cells; AID 1885, 2009; 1.4% of 300,000 active; T. cruzi beta-gal in NIH3T3, 90 h; inhibition, % (test concentration not listed);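 active = mean inhibition across valid replicates above about 55%, limit read from the data; inconclusive = mean below that limit but half or more replicates reach it; inactive = mean below it, under half of replicates reach it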;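 also: signal also drops with host cell toxicity which is not excluded here; 0% = plate median of DMSO wells and 100% = zero luminescence signal; higher percent means less beta-gal luminescence so fewer parasites; stock transfer was 50 nL into about 50 µL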
Ecoli rRNA inh: reduced GFP signal of wild-type E. coli, primary screen, bacterial rRNA inhibitor project, GFP/RFP fluorescence, OD600, single point; 1.6% of 350,000 active; E. coli WT GFP vs humanized-ribosome RFP mutants, 24 h; active compounds read low; DMSO median 0, no signal -100; GFP signal change (wild-type ribosome), % (concentration not given with the values);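 active = significant combined selectivity score with lowered wild-type GFP, culture density cut under 30%, mutant RFP and density less affected; inactive = any of these conditions unmet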; also: one replicate is shown; some compounds called inactive have numbers as strong as hits
MLL AF4-AF9 inh: inhibitors of AF4 peptide binding to AF9, primary screen, biochemical, AlphaScreen, biotin-AF4 peptide, FLAG-AF9, single point. Protein AF-9 (Homo sapiens), P42568. inhibition, % at 10 µM. 0.47% of 350,000 active. AID 651704, 2012;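 active = every replicate reaching a set inhibition limit, whatever the replicate mean, cut at about 25% in these data; inconclusive = mean inhibition reaches that limit but some replicates miss it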;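 also: 0% = plate neutral control median and 100% = total signal loss; the record names both 10 and 1 µM as test concentration; the first replicate is given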
Target sequence (P42568 whole entry, looked up): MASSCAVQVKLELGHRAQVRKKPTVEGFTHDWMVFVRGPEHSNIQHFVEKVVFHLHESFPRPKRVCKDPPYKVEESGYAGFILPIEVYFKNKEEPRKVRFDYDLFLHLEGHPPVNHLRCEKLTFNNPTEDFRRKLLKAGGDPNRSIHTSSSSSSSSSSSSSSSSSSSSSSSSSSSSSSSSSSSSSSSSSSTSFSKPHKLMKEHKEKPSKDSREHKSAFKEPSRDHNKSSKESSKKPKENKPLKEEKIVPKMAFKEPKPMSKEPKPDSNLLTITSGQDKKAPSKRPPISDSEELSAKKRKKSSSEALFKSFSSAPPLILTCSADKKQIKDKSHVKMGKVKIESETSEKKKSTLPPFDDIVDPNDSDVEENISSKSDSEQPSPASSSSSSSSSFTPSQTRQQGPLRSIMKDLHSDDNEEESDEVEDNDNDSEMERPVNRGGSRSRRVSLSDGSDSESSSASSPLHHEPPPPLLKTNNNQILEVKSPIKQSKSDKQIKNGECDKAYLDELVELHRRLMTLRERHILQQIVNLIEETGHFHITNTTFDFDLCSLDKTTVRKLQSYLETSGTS
RanGTP-Imp inh: inhibitors of RanGTP-importin-beta interaction, primary screen, biochemical, FRET, CFP-Ran, YFP-importin-beta, homogeneous; cell-free CFP-Ran/YFP-importin-beta FRET ratio; inhibition, % (test concentration not listed); 1.1% of 300,000 active; AID 2216, 2009;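 active = most replicates above 15%; inconclusive = exactly half above 15%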;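 also: 0% = DMSO wells and 100% = Ran loaded with GDP instead of GTP; wells of about 40 µL received 100 nL stock; the first replicate is given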
Calb FLC: C. albicans growth inhibition with fluconazole, primary screen, CaCi-2 strain, Alamar Blue fluorescence. C. albicans CaCi-2 (fluconazole-resistant clinical isolate) + fluconazole, 48 h. growth inhibition, % (test concentration not listed). 0.57% of 300,000 active. AID 1979, 2009;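 active = most replicates above 75%; inconclusive = exactly half above 75%; inactive = most below 75%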;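 also: all wells also contain fluconazole at 8 µg/ml as a sub-toxic cotreatment; 0% = median of DMSO wells and 100% = median of geldanamycin control wells; wells of about 8 µL received 7.5 nL stock; the first replicate is given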
Beta apoptosis: inhibitors of cytokine-induced beta cell apoptosis, primary screen, luminescence; INS-1E cytokine-induced death, ATP luminescence, 48 h; percent of positive-control rescue, neutral wells zero; protection from apoptosis, % (concentration not given with the values); 0.8% of 300,000 active;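 active = all replicates at 75% or more, or half of them and the mean; inconclusive = half reach 75% but not the mean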;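 also: 0% = cytokine-treated negative control wells and 100% = positive control rescue; higher means more ATP so stronger rescue from cytokine killing; wells of about 40 µL received 100 nL stock; the first replicate is given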
Ecoli rRNA inh OD600: also measured in Ecoli rRNA inh; calls as there; OD600 change, %; measured here: OD600 growth;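 optical density of the mix in the first replicate; 0 = DMSO median and -100 = no signal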
Ecoli rRNA inh RFP: second read-out of Ecoli rRNA inh, no call of its own (marks repeat the call); RFP signal change, %; measured here: RFP humanized mutant strains;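 first replicate; 0 = DMSO median and -100 = no signal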
Active calls of the source: *; i = inactive; ? = inconclusive; · = not tested or not shown. A portion of the library; rates above refer to the full screens.

compound	ALR H2O2 inh	FGF22 binding	T cruzi inh	Ecoli rRNA inh	Ecoli rRNA inh OD600	Ecoli rRNA inh RFP	MLL AF4-AF9 inh	RanGTP-Imp inh	Calb FLC	Beta apoptosis
COc1ccc(S(=O)(=O)N(CC(=O)NC(C)C)Cc2ccccc2)cc1	-1	·	-10	·	·	·	·	1.7	40	-4
CCn1c(=O)n(CC)c2cc(N3CCCC3)c(NC(=O)c3cc(Br)ccc3OC)cc21	11	i	64*	-5	-2	2.7	18	0.6	25	47
COc1ccc2c(-c3ccccc3)cc(SCC(=O)N(C)C3CCS(=O)(=O)C3)nc2c1 (stereo not given)	-3	i	24	0	10	-2.1	-3.6	-0.7	-7	10
c1ccc(-c2noc(-c3ccncc3)n2)nc1	-2	·	11	·	·	·	·	3.1	-3	29
CCOC(=O)c1ccc(N(C(=O)c2cnccn2)C(C(=O)NC2CCCCC2)c2cn(C)nc2C)cc1 (stereo not given)	-4	·	-8	·	·	·	·	6.0	-6	1
COc1ccc(C(=O)Nc2nnc(S(=O)(=O)N3CCCCCC3)s2)cc1OC	·	i	-3	4	-2	1.9	2.4	-0.2	0	-4
COc1ccccc1-n1c(C)cc(C=O)c1C	4	·	13	·	·	·	·	-3.3	-3	-1
CC(=O)N1CCc2cc(S(=O)(=O)CCC(=O)NCCc3ccc(C)cc3)ccc21	-6	i	-11	2	0	1.4	-1.9	0.9	-8	3
CCCC1(C(=O)OC)NC(c2ccco2)C2C(=O)N(c3ccc(C)cc3)C(=O)C21 (stereo not given)	-21	·	-8	·	·	·	·	2.8	-14	-4
COc1cc(CNC(C)C23CC4CC(CC(C4)C2)C3)cc(OC)c1OC (stereo not given)	-9	i	-2	2	3	0.0	1.5	-7.0	41	-8
CCNc1nc(NCC)n2c(SC(C(=O)Nc3cc(Cl)cc(Cl)c3)c3ccccc3)nnc2n1 (stereo not given)	-1	·	27	·	·	·	·	6.0	-12	3
COc1ccc(NC(=O)c2cc(-c3ccco3)on2)c(OC)c1	-5	i	-8	6	7	2.5	0.7	?	-2	6
O=C1CC(Sc2ncccc2C(=O)O)C(=O)N1 (stereo not given)	-2	i	4	9	9	0.2	-0.3	0.6	-18	-10
Cc1nc2c(ccc3nc(NC(=O)c4ccc5c(c4)OCCO5)sc32)s1	-5	·	57*	·	·	·	·	?	23	·
Cc1cc[n+](-c2[nH]c(=O)sc2/C=N/NC([S-])=Nc2ccccc2)cc1C	·	·	-34	·	·	·	·	-2.3	46	-10
Cc1ccccc1/C=N/n1c(-c2cc(-c3ccccc3)n[nH]2)n[nH]c1=S	-8	i	16	-6	14	-2.1	-2.1	4.0	-5	-3
COc1ccc(CC(=O)Nc2ccc(/C(C)=N\NC(=O)c3ccc(Br)o3)cc2)cc1	·	i	5	1	3	0.2	0.0	0.6	-2	·
Brc1ccc(-c2nc(-c3cccnc3)no2)o1	7	·	-4	·	·	·	·	-1.9	-3	-1
CC12CCC(=O)N1C(C(=O)Nc1cc(Cl)ccc1N1CCOCC1)CS2 (stereo not given)	12	i	7	-16	-19	-5.5	1.1	3.1	8	-1
CC1=C(C)CC(C(=O)NNC(=O)c2csc(C)c2C)C(C(=O)O)C1 (stereo not given)	-16	i	-9	4	3	-3.7	-7.2	-1.7	-1	-9

Overlap with the part before: 3 compounds, then new ones.
compound	ALR H2O2 inh	FGF22 binding	T cruzi inh	Ecoli rRNA inh	Ecoli rRNA inh OD600	Ecoli rRNA inh RFP	MLL AF4-AF9 inh	RanGTP-Imp inh	Calb FLC	Beta apoptosis
Brc1ccc(-c2nc(-c3cccnc3)no2)o1	7	·	-4	·	·	·	·	-1.9	-3	-1
CC12CCC(=O)N1C(C(=O)Nc1cc(Cl)ccc1N1CCOCC1)CS2 (stereo not given)	12	i	7	-16	-19	-5.5	1.1	3.1	8	-1
CC1=C(C)CC(C(=O)NNC(=O)c2csc(C)c2C)C(C(=O)O)C1 (stereo not given)	-16	i	-9	4	3	-3.7	-7.2	-1.7	-1	-9
NC1=NCc2ccccc21	-6	·	-7	·	·	·	·	2.4	?	-1
Cc1sc(NC(=S)Nc2ccc(F)cc2)c(C(N)=O)c1C	-39	i	-20	-14	-23	-4.6	-3.7	0.3	1	6
Nc1nc(Cl)cc(N2CCC(c3cc(-c4ccc(Cl)cc4)n[nH]3)CC2)n1	-5	i	58*	-51	-74	-27	1.4	3.0	44	104*
Nc1ccc(N=Nc2ccccc2O)c(N)c1	83*	i	0	-40*	3.9*	-5.2*	49*	-4.5	-5	-1
COc1ccc(CC(=O)NCc2ccccc2Cl)cc1S(=O)(=O)N1CCOCC1	-20	·	-2	·	·	·	·	-2.1	17	-3
Cc1sc2nc(CSCC(=O)N(C)CC(=O)Nc3ccc(F)cc3)[nH]c(=O)c2c1C	99*	i	4	1	-5	0.4	-1.0	-1.2	10	-5
COc1ccc(C(C(=O)NC2CCCC2)N(C(=O)c2ccco2)c2ccccc2OC)cc1 (stereo not given)	3	i	2	7	9	0.2	-0.4	-0.3	-6	1
O=C(OCc1nnc(-c2ccccc2)o1)c1cc(S(=O)(=O)N2CCOCC2)ccc1F	-5	i	-9	-7	-2	0.2	-0.7	-1.7	3	-1
COC(=O)[C@]12C(=O)C(C)=C(O)[C@@]1(C)C(C)=CC1[C@@]34CC[C@@H](OC(C)=O)C(C)(C)C3C(C[C@]12C)OC4=O (stereo not given in full)	-17	i	15	·	·	·	3.2	-0.6	10	·
CNS(=O)(=O)c1cc(OC)c(OC)cc1CC(=O)OC	-20	i	-14	16	10	-0.5	-4.2	21*	12	-5
CNC(=O)C(=O)NCC(c1cccs1)S(=O)(=O)c1ccc(F)cc1 (stereo not given)	0	i	-18	2	4	0.0	3.0	3.3	54	-2
CCc1nc(NCCC(C)C)c(C#N)c2c1CCCC2	1	·	12	·	·	·	·	0.0	5	10
N#Cc1cccc(S(=O)(=O)NCC(=O)NCc2ccc3c(c2)OCO3)c1	1	i	·	3	3	-1.3	-0.2	·	·	-5
O=c1cnnc(Nc2ccc(Cl)c(C(F)(F)F)c2)[nH]1	0	·	3	11	18	-0.8	0.8	2.1	5	1
Cc1ccc(S(=O)(=O)N(C#N)c2nc(C)cc(C)n2)cc1	2	·	-5	·	·	·	·	-1.6	0	1
CCSc1nc(C)nc2c1oc1ccccc12	-1	·	-6	·	·	·	·	-4.0	-2	1
CC1CCCCC1NCC(=O)NCc1ccc(F)cc1 (stereo not given)	-3	i	-17	3	4	-0.4	2.8	-0.2	-21	-2
CC1(C)CC(=O)C=C(NNC(=O)c2cccnc2)C1	10	i	-7	28	7	7.9	-2.2	-34	-5	-5
N#Cc1ccc(C(=O)Nc2nc(-c3cccs3)c(C(=O)C(F)(F)F)s2)cc1	·	i	-13	-46	-73	-15	5.4	1.0	1	?
O=C1NC(Cc2ccccc2)c2nc3cc(F)ccc3c(=O)n2-c2cc(Cl)ccc21 (stereo not given)	4	i	·	-1	-10	-8.2	0.7	·	·	2

Just Ecoli rRNA inh RFP, Ecoli rRNA inh and ALR H2O2 inh, for three of the compounds above:
| mol | Ecoli rRNA inh RFP | Ecoli rRNA inh | ALR H2O2 inh |
| --- | --- | --- | --- |
| NC1=NCc2ccccc21 | · | · | -6 |
| COC(=O)[C@]12C(=O)C(C)=C(O)[C@@]1(C)C(C)=CC1[C@@]34CC[C@@H](OC(C)=O)C(C)(C)C3C(C[C@]12C)OC4=O (stereo not given in full) | · | · | -17 |
| COc1ccc(C(C(=O)NC2CCCC2)N(C(=O)c2ccco2)c2ccccc2OC)cc1 (stereo not given) | 0.2 | 7 | 3 |

Carrying on.
compound	ALR H2O2 inh	FGF22 binding	T cruzi inh	Ecoli rRNA inh	Ecoli rRNA inh OD600	Ecoli rRNA inh RFP	MLL AF4-AF9 inh	RanGTP-Imp inh	Calb FLC	Beta apoptosis
CN1CCN(S(=O)(=O)c2ccc(NC(=O)c3ccc(F)cc3)cc2)CC1	0	·	-26	·	·	·	·	?	-4	-4
O=C(NNc1nc2c(F)cccc2s1)c1cc(=O)c2ccccc2o1	·	i	-9	-51*	-54*	-14*	2.0	-2.0	-2	-1
O=C(c1ccncc1)N1CCN(S(=O)(=O)c2cccc(Cl)c2)CC1	-10	i	13	-2	5	-1.4	-21	3.7	0	·
Nc1nc(Nc2ccccc2)nc2c1ncn2[C@@H]1O[C@H](CO)[C@@H](O)[C@H]1O	3	i	10	·	·	·	-11	7.2	3	·
COC(=O)c1ccc(-c2nc(O)c(C)s2)cc1	1	i	-5	11	17	-1.0	-4.1	-4.2	5	-3
COC(=O)c1ccc(C2CC(=O)NC3=C2C(=O)CCC3)cc1 (stereo not given)	-5	·	-13	·	·	·	·	5.4	16	-1
CC(C)(C)c1csc(Sc2ncccc2[N+](=O)[O-])n1	-7	i	-6	4	9	-1.6	0.8	1.6	-2	-14
Cc1noc(NS(=O)(=O)c2ccc(NC(=O)c3oc4ccc(Cl)cc4c3C)cc2)c1C	98*	·	-3	-44	-76	-17	-7.7	-0.9	0	-1
Cc1ccccc1Cn1c2ccccc2c2cn[nH]c(=O)c21	2	·	9	·	·	·	·	-0.9	-3	-3
COc1ccc(C(=O)NNC(=O)c2ccc3ccccc3c2O)cc1	0	i	-9	-24*	-19*	-6.6*	1.0	4.1	46	·
O=[N+]([O-])C1=CC=C2C(=NC3(CCCCC3)N2O)C1=NC1CCCCC1	-6	i	5	10	14	3.8	12	6.0	14	-3
O=C(Cc1ccccc1)O/N=C1\CCCc2ccccc21	·	i	-11	-1	8	-5.8	-8.0	3.6	-9	-3
CCc1ccc(C2=NN(C(=O)CCC(=O)O)C(c3cccs3)C2)cc1 (stereo not given)	2	i	2	5	-4	4.2	-0.1	-0.1	36	-1
COc1ccc(S(=O)(=O)N2CCOCC2)cc1NC(=O)COC(=O)C1=COCCO1	-16	i	-1	2	7	9.0	-0.3	-3.5	-5	-3
CCOP(=O)(c1ccc(N(C)C)cc1)C(O)c1ccccc1F (stereo not given)	7	i	-8	6	12	-1.5	3.0	-7.2	26	-2
O=C(NC1CC1)C1=C[C@H](c2ccc(C(F)(F)F)cc2)C[C@H](OCc2ccc(CO)cc2)O1	-5	i	6	-6	-14	-8.8	2.5	0.7	11	·
Cc1ccc(Cl)cc1NC(=O)c1ocnc1C	-7	·	-9	·	·	·	·	1.5	4	-4
